Screening results: PubChem, several laboratories
A1 inh – inhibitors of the anti-apoptotic protein A1, read as caspase activation | MEF A1-2A-BIM cells, Caspase-Glo 3/7 luminescence, 3 h; percent of clofoctol response, vehicle zero | caspase activation, % (concentration not given with the values) | hit rate 0.066% among 330,000;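 active = over half of replicate activation scores above 10%, or exactly half above 10 with the replicate mean above 10; inconclusive = replicate mean below 10 yet half the replicates above 10; inactive = over half of replicates below 10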;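 also: wells of about 30 µL received 50 nL stock; many hits fall short of the cut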
T cruzi repl – T. cruzi replication inhibition. T. cruzi beta-gal in NIH3T3, luminescence, 90 h. inhibition, % (concentration not given with the values). hit rate 1.4% among 300,000;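 active = mean inhibition across valid replicates above about 55%, limit read from the data; inconclusive = mean below that limit but half or more replicates reach it; inactive = mean below it, under half of replicates reach it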;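 also: signal also drops with host cell toxicity which is not excluded here; 0% = plate median of DMSO wells and 100% = zero luminescence signal; higher percent means less beta-gal luminescence so fewer parasites; stock transfer was 50 nL into about 50 µL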
ALR H2O2 inh – inhibitors of human sulfhydryl oxidase ALR; hit rate 3.8% among 290,000; purified ALR, DTT oxidation, H2O2 HRP-luminol luminescence; P55789; AID 485317; inhibition, % (concentration not given with the values);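 active = mean and each replicate at 75% or more; inconclusive = only one of the two met; inactive = neither met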;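 also: stock transfer was 7.5 nL into about 7.5 µL; 0% = neutral wells and 100% = wells with inactivated enzyme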
Calb FLC – affects C. albicans growth with fluconazole; hit rate 0.57% among 300,000; AID 1979; growth inhibition, % (test concentration not listed); C. albicans CaCi-2 (fluconazole-resistant clinical isolate) + fluconazole, Alamar Blue growth, 48 h;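 active = most replicates above 75%; inconclusive = exactly half above 75%; inactive = most below 75%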;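 also: all wells also contain fluconazole at 8 µg/ml as a sub-toxic cotreatment; 0% = median of DMSO wells and 100% = median of geldanamycin control wells; wells of about 8 µL received 7.5 nL stock; the first replicate is given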
Beta cell apopt – beta cell apoptosis inhibition; INS-1E cytokine-induced death, ATP luminescence, 48 h; percent of positive-control rescue, neutral wells zero; protection from apoptosis, % (test concentration not listed); hit rate 0.8% among 300,000;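 active = all replicates at 75% or more, or half of them and the mean; inconclusive = half reach 75% but not the mean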;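 also: 0% = cytokine-treated negative control wells and 100% = positive control rescue; higher means more ATP so stronger rescue from cytokine killing; wells of about 40 µL received 100 nL stock; the first replicate is given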
rRNA inh HTS – selective bacterial rRNA inhibition in E. coli | E. coli WT GFP vs humanized-ribosome RFP mutants, fluorescence, 24 h; hits give low values; DMSO median 0, no signal -100 | GFP signal change (wild-type ribosome), % (concentration not given with the values) | hit rate 1.6% among 350,000 | AID 720706;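 active = significant combined selectivity score with lowered wild-type GFP, culture density cut under 30%, mutant RFP and density less affected; inactive = any of these conditions unmet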; also: one replicate is shown; some compounds called inactive have numbers as strong as hits
LANA-H2A inh – blocks KSHV LANA binding to histone H2A/H2B. AID 2629. hit rate 0.6% among 320,000. inhibition, % (no concentration beside the values). cell-free LANA-H2A/H2B peptide, fluorescence polarization; in the data active = inhibition mostly above about 10%, no sharp cut-off; inactive = mostly below about 6.7%;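 also: stock transfer was 7.5 nL into about 10 µL; 0% = median of vehicle wells and 100% = median of positive control wells; one replicate is shown; the record names a cut of 25% in any replicate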
Target sequence (Q9QR71 whole entry, looked up): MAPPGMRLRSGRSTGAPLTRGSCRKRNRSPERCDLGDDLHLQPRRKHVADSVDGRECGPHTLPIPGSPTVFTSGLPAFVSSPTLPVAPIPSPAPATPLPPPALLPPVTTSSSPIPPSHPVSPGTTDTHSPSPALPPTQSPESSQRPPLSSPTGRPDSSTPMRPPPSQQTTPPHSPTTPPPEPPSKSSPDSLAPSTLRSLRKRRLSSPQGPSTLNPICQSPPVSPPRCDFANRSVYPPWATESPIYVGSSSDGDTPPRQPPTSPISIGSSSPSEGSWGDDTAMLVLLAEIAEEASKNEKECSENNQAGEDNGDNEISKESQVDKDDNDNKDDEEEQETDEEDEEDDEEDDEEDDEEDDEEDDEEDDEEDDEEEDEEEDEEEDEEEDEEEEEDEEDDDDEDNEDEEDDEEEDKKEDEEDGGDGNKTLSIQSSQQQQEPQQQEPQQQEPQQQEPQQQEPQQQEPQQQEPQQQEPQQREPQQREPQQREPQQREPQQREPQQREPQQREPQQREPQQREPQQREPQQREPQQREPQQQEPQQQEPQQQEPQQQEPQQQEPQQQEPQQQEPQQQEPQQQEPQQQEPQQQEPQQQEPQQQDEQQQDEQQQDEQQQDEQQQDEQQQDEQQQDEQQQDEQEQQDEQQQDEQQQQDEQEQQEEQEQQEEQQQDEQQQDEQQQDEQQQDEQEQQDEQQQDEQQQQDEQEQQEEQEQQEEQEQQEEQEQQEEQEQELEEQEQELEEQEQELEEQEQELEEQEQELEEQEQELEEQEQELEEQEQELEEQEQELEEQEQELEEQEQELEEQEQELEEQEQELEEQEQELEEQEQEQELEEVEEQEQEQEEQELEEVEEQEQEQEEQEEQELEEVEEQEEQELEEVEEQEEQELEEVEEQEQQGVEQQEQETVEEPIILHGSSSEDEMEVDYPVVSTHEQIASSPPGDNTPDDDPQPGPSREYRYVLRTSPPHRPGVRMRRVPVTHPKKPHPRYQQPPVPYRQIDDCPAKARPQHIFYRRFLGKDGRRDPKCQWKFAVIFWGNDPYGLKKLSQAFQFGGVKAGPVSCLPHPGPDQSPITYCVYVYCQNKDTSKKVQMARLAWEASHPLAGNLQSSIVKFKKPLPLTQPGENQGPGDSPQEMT
B2AR ag – human beta-2 adrenergic receptor agonism by FAP. response, % (no concentration beside the values). Am2.2-beta2AR cells, FAP receptor internalization, flow cytometry; reference of the scale not given here. hit rate 0.43% among 340,000;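 active = response above a set limit, near 3 SD of response in nonfluorescent compounds, cut at about 42% in these data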;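 also: stock transfer was 100 nL into about 11 µL; a reference agonist was the positive control; negative values mostly stem from fluorescent compounds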
rRNA inh HTS OD600 – further read-out of rRNA inh HTS, marked with its call; OD600 change, %; measured here: OD600 growth;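 optical density of the mix in the first replicate; 0 = DMSO median and -100 = no signal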
rRNA inh HTS RFP – further read-out of rRNA inh HTS, marked with its call; RFP signal change, %; measured here: RFP humanized mutant strains;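 first replicate; 0 = DMSO median and -100 = no signal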
An asterisk follows results filed as active; u = inconclusive; x = not tested or not shown.

Structure	A1 inh	T cruzi repl	ALR H2O2 inh	Calb FLC	Beta cell apopt	rRNA inh HTS	rRNA inh HTS OD600	rRNA inh HTS RFP	LANA-H2A inh	B2AR ag
CCN1C(=O)[C@@H]2[C@H](C1=O)[C@@H]1C(=O)Nc3ccccc3C(=O)N1[C@@H]2c1cccc(Cl)c1	0.3	-20	x	0	-2	x	x	x	-0.6	-8
O=C(OCC(O)COc1ccccc1)c1ccc([N+](=O)[O-])cc1 (stereo unspecified)	1.3	16	-9	-5	8	1	7	-7.2	-3.3	5
COc1ccccc1Nc1nc2ccccc2n2cnnc12	u	5	x	-1	-6	5	-3	-8.9	-1.8	-25
Cc1ccc(-n2c(=O)[nH]c3c(C(N)=O)nc(C(C)C)nc32)cc1	1.0	4	-6	11	1	-5	-4	-6.5	-3.7	-1
C[C@H]1CCC2[C@](C)(CO)[C@@H](O)CC[C@]2(C)[C@@]12CCC(CO)(CCO)O2 (stereo partly specified)	1.2	-6	-26	-8	-1	2	12	0.7	2.6	1
CC(C)=Cc1oc2ccc([N+](=O)[O-])cc2c1N1CCOCC1	0.6	11	3	30	-4	9	1	1.1	0.0	-2
Cc1ccc(-c2nc(CN3CCCCC3c3cccc(F)c3)c(C)o2)o1 (stereo unspecified)	-0.3	9	-18	4	-9	-18*	-6.8*	3.2*	12	3
CCOCCOC(=O)COC(=O)c1ccccc1NC(=O)c1ccccc1	0.3	-9	-12	39	6	-21	-28	-0.4	6.8	-2
CC(C)N1CC(O)=C(c2nc3ccccc3[nH]2)C1=N	0.3	-10	u	0	-1	4	7	-2.4	-1.3	-1
CCN(CCCNC(=O)CNC(=O)c1nn(-c2ccc(OC)cc2)c(=O)c2ccccc12)c1cccc(C)c1	-0.2	17	18	20	7	-1	2	8.0	-1.7	-4
CCOC(=O)Cn1c2ccc(F)cc2c2nc(C)sc21	0.9	-1	-13	43	-15	-8	-4	8.7	-0.1	8
Cc1cc(C[n+]2ccccc2)c2nsnc2c1	0.1	-16	0	-1	5	x	x	x	1.2	-4
O=C(c1ccc(F)cc1)c1ccc(-c2ccc(F)cc2)nc1	-0.2	-13	x	-8	8	8	10	-1.9	0.6	-9
Cc1c(NS(=O)(=O)c2ccc(NCC3CCCO3)c([N+](=O)[O-])c2)c(=O)n(-c2ccccc2)n1C (stereo unspecified)	0.2	0	x	8	-3	-3	2	6.9	2.9	-15
CN(C)S(=O)(=O)c1ccc(-n2cccc2)cc1	1.5	-12	-2	-3	-2	3	4	-2.3	-1.6	2
COc1cc(NC(=O)Cn2c(=O)n(CC3CCCO3)c(=O)c3ccccc32)cc(OC)c1 (stereo unspecified)	0.1	-6	-7	-16	-5	8	7	-1.9	-1.4	10
Cc1sc[n+](CC(=O)c2ccc(Br)cc2)c1C	-0.6	-5	17	0	-7	3	7	0.3	3.7	1
C/C(=N\NS(=O)(=O)c1ccc(Cl)c([N+](=O)[O-])c1)c1cc2ccccc2o1	0.4	-5	8	-11	2	x	x	x	1.0	-1
CC(=O)c1c(C)[nH]c(C(=O)OCC(=O)Nc2ccc(C)cc2[N+](=O)[O-])c1C	-0.5	-4	-5	24	123*	x	x	x	6.3	8
Cc1cccc(Cn2c(N3CCN(C)CC3)nc3c2c(=O)[nH]c(=O)n3C)c1	-0.3	-10	2	2	8	2	10	4.4	-0.9	-5
COc1ccc(CCNC(=O)CN2CCN(c3ccccc3Cl)CC2)cc1	-0.5	-14	-9	-44	-4	x	x	x	-0.8	-14
O=C(Nc1cc2cc([N+](=O)[O-])ccc2oc1=O)c1cccs1	0.2	-9	2	-9	3	x	x	x	-4.4	x
COc1ccc(-n2c(SCC(=O)Nc3ccccc3OC)nc(O)c(Cc3ccccc3)c2=O)cc1	-0.7	10	4	19	3	-1	-13	-5.6	-6.9	4
Nc1nnc(N)c2ccccc12	-0.5	2	4	0	-4	16	14	0.8	-1.7	-5
Cc1ccc(C(=O)Cn2cncn2)cc1	-1.2	-1	-1	-7	6	9	11	-1.8	-5.1	0
CC(C(=O)Nc1ccc(S(=O)(=O)N2CCCC2)cc1)N1CCc2ccccc2C1 (stereo unspecified)	-0.9	x	-3	x	5	x	x	x	2.8	5
CCOC(=O)c1ccc(Oc2nc(N(C)C)nc(N3CCOCC3)n2)cc1	-1.4	-7	-5	10	21	4	-2	-2.8	-1.4	-3
Cc1ccc(C(=O)NCC(=O)NCC(=O)OCc2ccc(Oc3ccc([N+](=O)[O-])cc3)cc2)cc1	0.3	9	x	-1	11	x	x	x	-0.2	-21
O=C(COC(=O)CCc1nc2ccccc2c(=O)[nH]1)Nc1ccccc1Cl	0.2	-2	1	2	-12	6	2	6.8	2.2	-10
CC(=O)N(C)c1ccc(OCC(O)CN(Cc2ccco2)S(=O)(=O)c2ccc(C)cc2)cc1 (stereo unspecified)	-1.9	8	-1	13	9	x	x	x	0.7	2
CCOC(=O)c1c(S(=O)(=O)NCC(=O)N2CCN(c3ccccc3OC)CC2)c(C)n(C)c1C	-0.4	-4	12	4	2	3	6	-1.0	-2.0	7
COc1ccc(C(=O)O/N=C(\N)c2ccncc2)cc1OC	-0.9	-6	-12	-6	3	x	x	x	0.4	5
CN(C)Cc1c(C(=O)N/N=C/c2ccc(OCc3c(F)cccc3Cl)cc2)nnn1-c1nonc1N	0.1	7	74	-3	6	1	1	0.3	-1.5	1
CCN(CC)C(=O)C1=C(C)NC(=S)NC1c1ccc(C)s1 (stereo unspecified)	0.2	2	-4	44	-3	13	-6	-0.6	-2.0	1
Cc1ccccc1C(=O)N1CCC(C(=O)NC2CCCCCC2)CC1	-0.2	0	-2	3	-4	6	10	1.9	-5.5	-1
Cc1cc(C)c(S(=O)(=O)c2ccccc2C)c(Oc2ccccc2)n1	1.9	0	-17	1	-4	x	x	x	-0.3	-2
O=C(CN1C2=NCCCN2c2ccccc21)c1ccc2c(c1)OCO2	0.8	0	-11	-7	-6	10	7	0.0	0.8	-2
O=S(=O)(c1cc(Cl)ccc1Cl)N1CCN(c2ccccn2)CC1	-0.1	13	0	12	x	-5	-2	4.0	0.3	-10
COc1ccc(CCN(C)c2ccc(S(=O)(=O)N3CCCC3)cc2[N+](=O)[O-])cc1OC	0.7	-11	x	8	-7	-22	-22	3.8	-0.7	2
CCn1c(=O)cc(SCC(=O)N2CCOCC2)c2ccccc21	1.1	7	-2	45	-6	x	x	x	1.0	-15
COc1cccc(CNC(=O)CCC2CCCN(C(=O)CCC(F)(F)F)C2)c1 (stereo unspecified)	0.9	-3	-1	10	-5	11	12	4.4	1.2	2
Cc1ccccc1CNC(=O)Nc1ccc(Cl)cc1	-0.5	2	-3	-1	0	-1	8	0.6	-1.9	7
C=CC(=O)N1CCCC(Nc2nc(Nc3ccc(N(C)C(=O)CC)cc3C)nc3nc[nH]c23)C1 (stereo unspecified)	-0.7	x	-12	x	-1	-1	-5	-0.3	1.3	-5
C=CCN1C(=O)C(CC(=O)O)SC1=Nc1cccc([N+](=O)[O-])c1 (stereo unspecified)	-0.3	-14	19	-6	-3	2	-2	-2.0	-1.0	-1
Cc1ccc(CNC(=O)c2cccc3c2C(=O)c2ccc(N4CCOCC4)cc2S3(=O)=O)cc1	0.6	x	-8	x	-6	10	15	2.0	2.0	-3
Cc1ccc2c(c1)CCCN2CC(=O)N(C)c1c(N)n(Cc2ccccc2)c(=O)[nH]c1=O	-0.8	x	91*	x	2	30	10	7.0	5.6	4
O=C(NC1(N2CCOCC2)CC1)c1ccc(Cl)cc1	0.4	13	-8	0	-2	11	3	2.1	2.0	2
Cc1nc(N2CCN(c3ccccn3)CC2)c2c(C)c(C(=O)N3CCN(c4cccc(Cl)c4)CC3)sc2n1	0.2	37	-5	15	2	-4	-4	-8.5	0.7	15
O=C(CCn1c(=S)[nH]c2cc3c(cc2c1=O)OCO3)NCc1ccc(Cl)cc1	-0.2	10	0	46	-3	6	20	0.3	-1.0	-6
CCC(C)Sc1nnc(-c2c[nH]c3ccccc23)n1CCOC (stereo unspecified)	0.1	-4	-5	-16	1	x	x	x	6.1	-4
O=C(NCCCN1CCOCC1)c1cccc(S(=O)(=O)Nc2cc(Cl)ccc2Cl)c1	0.0	42	3	8	0	-1	-13	-2.2	1.5	0
CCN1CCN(C(=O)c2ccccc2N(C)S(=O)(=O)c2ccc(C)cc2)CC1	-0.2	-8	x	2	x	x	x	x	-7.6	-19

For convenience, 11 of the compounds above.
Structure	A1 inh	T cruzi repl	ALR H2O2 inh	Calb FLC	Beta cell apopt	rRNA inh HTS	rRNA inh HTS OD600	rRNA inh HTS RFP	LANA-H2A inh	B2AR ag
Cc1ccccc1CNC(=O)Nc1ccc(Cl)cc1	-0.5	2	-3	-1	0	-1	8	0.6	-1.9	7
C=CC(=O)N1CCCC(Nc2nc(Nc3ccc(N(C)C(=O)CC)cc3C)nc3nc[nH]c23)C1 (stereo unspecified)	-0.7	x	-12	x	-1	-1	-5	-0.3	1.3	-5
C=CCN1C(=O)C(CC(=O)O)SC1=Nc1cccc([N+](=O)[O-])c1 (stereo unspecified)	-0.3	-14	19	-6	-3	2	-2	-2.0	-1.0	-1
Cc1ccc(CNC(=O)c2cccc3c2C(=O)c2ccc(N4CCOCC4)cc2S3(=O)=O)cc1	0.6	x	-8	x	-6	10	15	2.0	2.0	-3
Cc1ccc2c(c1)CCCN2CC(=O)N(C)c1c(N)n(Cc2ccccc2)c(=O)[nH]c1=O	-0.8	x	91*	x	2	30	10	7.0	5.6	4
O=C(NC1(N2CCOCC2)CC1)c1ccc(Cl)cc1	0.4	13	-8	0	-2	11	3	2.1	2.0	2
Cc1nc(N2CCN(c3ccccn3)CC2)c2c(C)c(C(=O)N3CCN(c4cccc(Cl)c4)CC3)sc2n1	0.2	37	-5	15	2	-4	-4	-8.5	0.7	15
O=C(CCn1c(=S)[nH]c2cc3c(cc2c1=O)OCO3)NCc1ccc(Cl)cc1	-0.2	10	0	46	-3	6	20	0.3	-1.0	-6
CCC(C)Sc1nnc(-c2c[nH]c3ccccc23)n1CCOC (stereo unspecified)	0.1	-4	-5	-16	1	x	x	x	6.1	-4
O=C(NCCCN1CCOCC1)c1cccc(S(=O)(=O)Nc2cc(Cl)ccc2Cl)c1	0.0	42	3	8	0	-1	-13	-2.2	1.5	0
CCN1CCN(C(=O)c2ccccc2N(C)S(=O)(=O)c2ccc(C)cc2)CC1	-0.2	-8	x	2	x	x	x	x	-7.6	-19

Some of the compounds tested. The share of hits here may be higher or lower than overall.
